# gsp antagonist: antagonists of gsp mutant (McCune-Albright syndrome); gsp-mutant cells, cAMP HTRF, 30 min; control for the full effect not named in the record; AID 624288; Potency, µM (series often up to 76.9 µM), inactives show at the highest dose activity change, negative = inhibition, usual class: inhibitors; actives 0.4% (n = 340,000); active = falling curve of any shape with a large fitted effect; inconclusive = falling curve, mostly with a smaller effect; inactive = flat or rising curve; cell line not stated here;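 further: intracellular cAMP measured with PDE inhibitor Ro 20-1724 present during compound exposure; potency means the concentration at half of the fitted maximal effect; on the % scale 0 is the no-effect control and ±100 the full control effect; nearly all actives have a fitted effect of over 65% in size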
#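 HTRF cAMP read-out (cAMP-d2 plus anti-cAMP antibody-K in lysis buffer, 30 min RT). Before lysis, cells are exposed to compounds with […] for 30 min at 37C in DPBS containing Ca/Mg, BSA and Tween 20.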
# D2 potentiator: positive allosteric modulators of human D2 dopamine receptor. DiscoveRx D2 beta-arrestin cells, luminescence, 90 min; 100% = 57 uM dopamine signal. potentiation, % (concentration not given with the values). actives 0.23% (n = 360,000); active = potentiation of 50% or more; inconclusive = 30% to 50%; inactive = 30% or less;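 further: compound concentration not given in the record; tested on top of an EC20 dose of dopamine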
#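 PathHunter beta-arrestin assay in DiscoveRx D2 cells. Compounds were added with an EC20 of dopamine (50 nM final) for 90 min at 37 deg C. Luminescence was read 1 h after detection reagent, with 57 uM dopamine as the EC100 control.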
# Six1-Eya2 inh: Six1/Eya2 interaction inhibition; Q15475+O00167; AlphaScreen GST-Six1/His-Eya2 binding, biochemical; active compounds read low; control for the full effect not named in the record; activity change, % (test concentration not listed); actives 0.56% (n = 360,000); in the data active = activity change below about -65%; inconclusive = about -30% to -65%; inactive = above about -30%; further: on the % scale 0 is the no-effect control and ±100 the full control effect
# Target sequence (O00167 whole entry, looked up): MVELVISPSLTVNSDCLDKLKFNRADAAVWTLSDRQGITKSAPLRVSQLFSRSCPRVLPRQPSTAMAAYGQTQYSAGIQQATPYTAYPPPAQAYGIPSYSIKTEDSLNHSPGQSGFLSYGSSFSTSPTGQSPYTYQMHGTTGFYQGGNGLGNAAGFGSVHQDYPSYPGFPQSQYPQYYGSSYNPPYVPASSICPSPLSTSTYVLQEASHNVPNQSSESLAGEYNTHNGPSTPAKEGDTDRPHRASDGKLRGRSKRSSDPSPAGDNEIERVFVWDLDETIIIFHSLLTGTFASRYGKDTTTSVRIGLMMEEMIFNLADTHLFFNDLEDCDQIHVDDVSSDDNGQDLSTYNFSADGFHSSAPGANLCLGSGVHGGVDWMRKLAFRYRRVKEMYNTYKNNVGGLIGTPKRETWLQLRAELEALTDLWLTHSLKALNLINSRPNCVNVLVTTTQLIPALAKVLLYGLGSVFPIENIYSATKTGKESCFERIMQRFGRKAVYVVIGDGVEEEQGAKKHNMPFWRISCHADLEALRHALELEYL
# Target sequence (Q15475 whole entry, looked up): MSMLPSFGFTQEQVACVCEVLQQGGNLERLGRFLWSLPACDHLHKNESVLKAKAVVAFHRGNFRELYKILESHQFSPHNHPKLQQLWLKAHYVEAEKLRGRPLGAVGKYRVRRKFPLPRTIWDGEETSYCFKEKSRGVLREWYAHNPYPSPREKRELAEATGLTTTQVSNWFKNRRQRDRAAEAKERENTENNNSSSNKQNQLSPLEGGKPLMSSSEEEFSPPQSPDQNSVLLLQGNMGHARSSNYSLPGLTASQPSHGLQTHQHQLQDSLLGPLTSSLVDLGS
#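 Six1/Eya2 binding was read as AlphaScreen signal after compounds were pinned into GST-Six1 plus His-tagged Eya2 (5X stock 250/500 nM) in pH 8.0 Tris/NaCl/TCEP buffer, beads added, then incubated 1 h, 37 C, dark.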
# CtBP-E1A blk: inhibitors of CtBP/E1A interaction. actives 0.49% (n = 340,000). AlphaScreen GST-E1A/His-CtBP binding, 1536-well; active compounds read low; control for the full effect not named in the record. activity change, % (no concentration beside the values); in the data active means activity change below about -65%; inconclusive means about -30% to -65%; inactive means above about -30%; further: on the % scale 0 is the no-effect control and ±100 the full control effect
#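 AlphaScreen with 125 nM GST-E1A and 125 nM His-CtBP (5X stocks) in Tris pH 8.0, 300 mM NaCl, BSA, Tween 20, TCEP. Compounds preincubated 2 h at 37 deg C, then glutathione donor/nickel acceptor beads added for 1 h at 37 deg C in dark.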
# gsp ag: gsp mutant agonism. actives 0.13% (n = 340,000). gsp mutant cells, cAMP HTRF, 30 min; control for the full effect not named in the record. Potency, µM (highest dose often 76.9 µM), without a hit: at the highest dose activation (cAMP increase), hits mostly activators; active = well fitted activation curve with a large enough effect; inconclusive = small, poorly fitted or top-dose-only effect, or another doubt; inactive = no such curve, though single readings can be large or run the other way; cell line not stated here;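 further: phosphodiesterase inhibitor Ro 20-1724 added with compounds to block cAMP breakdown; potency means the concentration at half of the fitted maximal effect; nearly all actives have a fitted effect of over 60% in size; about a fifth of the inactives were tested at one dose only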
#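 Cells stably selected in G418 were plated at 2000/well, grown 16-24 hr, then given compounds in DMSO with the PDE inhibitor […] (300 uM solution added) for 30 min at 37C; cAMP was read by HTRF.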
# D2 agonist: agonists of human D2 dopamine receptor (beta-arrestin); P14416; DiscoveRx PathHunter D2 beta-arrestin, luminescence, 90 min; 100% = 57 uM dopamine signal; activation, % (concentration not given with the values); actives 0.084% (n = 360,000); in the data active = activation above about 40%; inconclusive = about 15% to 40%; inactive = below about 15%; further: compound concentration not given in the record; the text of the record calls up to 30% inactive
#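 DiscoveRx PathHunter D2 beta-arrestin cells (2,100/well) attached overnight, then compound-stimulated 90 min at 37 C in HBSS/10 mM HEPES/0.1% Tween-20 buffer; beta-galactosidase complementation read by luminescence after 1 h at ambient temperature. Dopamine 57 uM final (EC100) as control.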
# * = called active by the depositor; u = inconclusive; x = no result given; [ ] = another dose, or the depositor's remark. The order is random; about 1.4% have a hit in one of these screens.
Molecule	gsp antagonist	D2 potentiator	Six1-Eya2 inh	CtBP-E1A blk	gsp ag	D2 agonist
O=C(CCn1c(=S)[nH]c2cc3c(cc2c1=O)OCO3)NCc1ccc(Cl)cc1	5%	-4	0	3	27%	3.1
Cc1onc(-c2ccccc2)c1C(=O)NC(=S)NNC(=O)c1ccncc1	-5%	-13	-6	8	6%[15.4 µM]	4.8
Cn1c(=O)c2c(ncn2CC(=O)N/N=C/C=C/c2ccccc2)n(C)c1=O	1%	-2	-1	6	u	2.2
COCC(C)NS(=O)(=O)c1ccc(NC(=O)c2ccccn2)cc1 (centres undefined)	18%	-14	5	x	6%	-3.5
O=C(c1ccccc1)c1ccc2nc[nH]c2c1	-2%	-23	0	8	-27%	-1.7
Cc1ccc(CNC(=O)N2CCN(S(=O)(=O)c3ccccc3)CC2)cc1	6%	-5	4	1	6%[15.4 µM]	-0.3
O=C(COC(=O)c1ccc(F)c(S(=O)(=O)N2CCCCC2)c1)NCc1ccc(F)cc1	-13%	-3	-3	-2	1%	8.1
CC(C)N(c1ccccc1)c1ccc(NC(=O)[C@@H]2O[C@H](CO)[C@H](O)[C@H](O)[C@H]2O)cc1	x	-13	6	-4	x	-4.3
COc1ccc(CCNC(=O)COC(=O)Cc2ccccc2[N+](=O)[O-])cc1	7%	-6	-11	-1	-73%[inhibitor]	1.4
CCc1ccccc1OCC(=O)NNCC(=O)Nc1cccc(C#N)c1	-7%	-9	-5	x	12%	-1.8
Cc1c(C(=O)N2CCN(c3ccccn3)CC2)oc2ccccc12	-4%	-3	-1	3	-28%	1.3
COc1ccc(OC)c(NC(=O)C(=S)NC2CCCCC2)c1	-14%	-3	-21	-26	2%	-2.1
CCn1c(=S)sc2c(=O)n(CC(=O)Nc3ccc(OC)cc3)c(C)nc21	2%	5	18	0	-2%	1.4
O=C(CCc1ccccc1)OCC(=O)c1ccc([N+](=O)[O-])cc1	-6%	-8	-12	x	23%	7.5
Cc1nc(SCC(=O)NC2CC2)c2c(C)c(C)sc2n1	-4%	-1	5	3	10%[15.4 µM]	-6.8
CCCN(C(=O)CSc1nnc2ccccn12)C1CCS(=O)(=O)C1 (centres undefined)	7%	1	4	x	12%	-1.0
Cc1cccc(NC(=O)C2CC3CCC2C3)c1C (centres undefined)	0%	-1	22	7	4%	3.0
COc1cc(C(=O)Nc2ccc(Nc3ccccc3)cc2)cc(OC)c1OC	u	-1	-24	-2	6%	-0.2
COC(=O)CCC(=O)NNC(=O)c1ccc(Cl)cc1Cl	1%	-8	5	10	-6%	-0.4
CCOC(=O)c1cc(C(=O)Nc2ccc(C)c(F)c2)nn1C	-12%	-14	6	4	11%	-0.8
CN(C)CCCn1c(N)c(S(=O)(=O)c2ccccc2)c2nc3ccccc3nc21	3%	-9	3	3	15%[15.4 µM]	-0.8
COc1ccccc1CNC(=O)CCNS(=O)(=O)/C=C/c1ccc(C)cc1	-7%	-4	-1	-6	22%	5.4
Cc1c(NC(=O)COc2cccc3c2OC(C)(C)C3)c(=O)n(-c2ccccc2)n1C	12%	-6	3	12	u	-1.4
C(=C\c1ccccc1)/CN1CCN(C(c2ccnc3ccccc23)c2nnnn2-c2ccc3c(c2)OCCO3)CC1 (centres undefined)	x	-10	-24	-20	x	-1.3
CCN(CC)c1ccc(CNc2ccc3c(c2)ncn3C(C)(C)C)cc1	-4%	0	-25	-22	-17%	8.3
COC(=O)c1ccc(COC(=O)c2ccc(N(C)C)cc2)cc1	-16%	-15	1	8	-33%	1.0
O=C(O)c1ccccc1NC1CCCCC1NS(=O)(=O)c1ccccc1 (centres undefined)	-12%	-4	0	7	-1%	-1.4
CCOC(=O)c1cc(NC(=O)N2CCCCC2)c(C)nc1C	-3%	1	0	7	u	-2.8
CCC1Oc2ccc(C)cc2N(CC(=O)N2CCOCC2)C1=O (centres undefined)	0%	-2	5	3	-18%	0.7
C=CCNc1nc(-c2ccccc2)c(C(=O)OCC)cc1C#N	18%	-27	19	15	-5%	-4.6

# One compound at a time, as listed above. Order of values: gsp antagonist, D2 potentiator, Six1-Eya2 inh, CtBP-E1A blk, gsp ag, D2 agonist
# CCN(CC)c1ccc(CNc2ccc3c(c2)ncn3C(C)(C)C)cc1 is listed with -4%, 0, -25, -22, -17%, 8.3
# O=C(CCc1ccccc1)OCC(=O)c1ccc([N+](=O)[O-])cc1 is listed with -6%, -8, -12, x, 23%, 7.5
# Cc1onc(-c2ccccc2)c1C(=O)NC(=S)NNC(=O)c1ccncc1 is listed with -5%, -13, -6, 8, 6%[15.4 µM], 4.8

# Carrying on.
Molecule	gsp antagonist	D2 potentiator	Six1-Eya2 inh	CtBP-E1A blk	gsp ag	D2 agonist
COc1cccc(C2/C(=C(/O)c3ccc4c(c3)CC(C)O4)C(=O)C(=O)N2c2nnc(C)s2)c1 (centres undefined)	-15%	-2	-1	6	u	-5.2
C[C@H](CO)N1C[C@H](C)[C@@H](CN(C)S(=O)(=O)c2ccccc2)Oc2ccc(NC(=O)CCN3CCOCC3)cc2C1=O	7%	-10	10	-5	-37%[inhibitor]	-3.2
CC12CCC(=O)C=C1CCC1C2C(=O)CC2(C)C1CCC2(O)C(=O)CO (centres undefined)	5%	-5	31	3	-44%[inhibitor]	-3.6
Cc1ccccc1-n1c(SCC(=O)N2CCCCC2)nc(O)cc1=O	3%	3	0	-2	9%	-1.7
CNC(=O)/C(C#N)=C/c1c(N2CCCCCC2)nc2ccccn2c1=O	-7%	5	-1	-1	28%	7.2
Cc1cc(N/C=C\C(=O)c2ccc(Cl)c(Cl)c2)no1	-3%	-5	-6	-2	-15%	1.1
COc1cc2cc(CN(CCc3cccc(C)c3)C(=S)NCCCN(C)C)c(=O)[nH]c2cc1OC	7%	-24	-3	-16	8%	-2.8
Brc1ccc(-c2nc3ccccc3s2)s1	-18%	7	61	40	u	-4.3
Cc1c(C(=O)N2CCc3ccccc32)oc2ccccc12	-34%	-8	27	5	-6%	1.2
Cc1nn2c(-c3ccc(F)cc3)ccnc2c1Cl	4%	-8	3	15	-3%[15.4 µM]	-2.3
COc1cccc(CN2CC(C(=O)NC3(c4ccccc4)CC3)CCC2=O)c1 (centres undefined)	11%	-16	1	5	0%[15.4 µM]	-2.8
Cc1ccc(-c2n[nH]c(=O)c3ccccc23)cc1S(=O)(=O)NCCO	13%	4	4	7	u	0.8
Cc1ccc(Nc2c(-c3ccccc3O)nc3ncccn23)cc1	-15%	6	-8	-2	28%	3.5
COc1ccc(/C=C/C(=O)OCC(=O)NC2CCCC2)cc1	5%	9	0	-1	-13%	-4.2
CCOc1ccc(NC(=O)Nc2c(C)n(C)n(-c3ccccc3)c2=O)cc1	16%	-9	1	10	-32%[inhibitor]	-4.1
COc1ccc(CCNC(=O)c2ccc(=O)[nH]c2)cc1OC	13%	-4	0	4	0%[15.4 µM]	-2.0
CC(C)C(=O)Nc1nnc(CCc2ccccc2)s1	-1%	-13	5	x	3%	-2.8
Cc1ccc(C)c(Nc2ccc3nonc3c2[N+](=O)[O-])c1	-12%	-1	-1	-4	-29%	-3.6
Cc1cc(C)n(-c2nc(C)nc(N)n2)n1	1%	-5	-2	0	u	-0.2
CN(C(=O)c1cnc2n(c1=O)CCS2)C1CCCCC1	7%	-5	-3	0	10%	-4.1
COc1cc(OC)cc(C(=O)Nn2cc(C(=O)N3CCN(C)CC3)c3ccccc3c2=O)c1	6%	-5	-16	4	15%	0.9
CSc1sc(C(=O)N2CCCCC2)c(-c2cccs2)c1C#N	-3%	-5	-1	-3	24%[15.4 µM]	1.2
CC(Oc1ccc(Cl)cc1Cl)c1nc(-c2ccccn2)no1 (centres undefined)	-12%	-3	4	5	u	1.4
COc1cccc(C(=O)Nc2ccccc2N2CCCC2)c1	-7%	-1	1	-4	5%	-0.7
COc1ccc(OC)c(/C=C2\SC(=S)N(NS(=O)(=O)c3ccccc3)C2=O)c1	18µM*	-8	0	-3	u	-5.5
CC12C(=O)N(c3ccc(OC(=O)c4ccco4)cc3)C(=O)C1C1c3ccccc3C2c2ccccc21 (centres undefined)	0%	-18	-2	-5	-4%	-2.5
Fc1ccccc1/C=N/Nc1nc2ccccc2o1	11%	-2	8	1	u	6.0
CCC(C)c1ccccc1NC(=S)Nc1cccnc1 (centres undefined)	-1%	-14	-5	4	-27%	-3.5
COc1cc2c(cc1OC)CN(CC(=O)NC(=O)NC1CCCCC1)CC2	-51%	-8	0	-4	16%[15.4 µM]	-2.4
CCOC(=O)c1cc(NC(=O)Nc2nc3ccccc3s2)c(C)nc1C	3%	1	0	7	9%	-2.3

Molecule	gsp antagonist	D2 potentiator	Six1-Eya2 inh	CtBP-E1A blk	gsp ag	D2 agonist
COc1ccc(/C=C/C(=O)N(C(C)C)C(C)C)cc1Br	-20%	7	3	0	u	-0.7
C[N+](C)(C)CCOC(N)=O	-2%	1	5	6	x	-1.2
COC(=O)c1cc(-c2ccc(OC)cc2)n[nH]1	-11%	10	-2	-9	-5%	7.1
NS(=O)(=O)c1ccc(NC(=O)c2ccc(S(=O)(=O)N3CCCCCC3)cc2)cc1	-3%	8	3	5	-1%[15.4 µM]	0.3
COc1cc(OC)cc(-c2noc([C@@H]3O[C@H](CO)[C@@H](O)[C@H]3O)n2)c1	x	-6	5	4	x	-1.1
O=C(CNC(=O)c1ccc2c(c1)OCO2)NCCOc1ccc(Cl)cc1	0%	-13	-4	x	0%	-1.3
COc1cccc(/C=N/Nc2nc(Nc3ccccc3)nc(-n3nc(C)cc3C)n2)c1O	-24%	-58	u	u	-6%	-19
COC(=O)c1cc(S(=O)(=O)Nc2cc(OC)cc(OC)c2)cn1C	-3%	-6	7	-23	u	6.3
COC(=O)N/N=C1\CCCc2c(C)cc(C)cc21	-10%	-9	12	-2	-26%	1.1
Cc1csc(NC(=O)C2CCCN(S(=O)(=O)c3ccc4c(c3)oc(=O)n4C)C2)n1 (centres undefined)	-6%	-4	-6	2	-29%	-0.8
CSc1ncccc1C(=O)OCC(=O)NCCCc1ccccc1	3%	-1	-2	6	-6%	-4.7
CN(C)C(CNC(=O)c1ccc2ccccc2c1)c1ccco1 (centres undefined)	-22%	-17	-3	7	20%[15.4 µM]	-4.0
COc1cccc(N=Nc2c(=O)[nH]n3c(=O)c4c([nH]c23)CCC4)c1	u	-14	u	-26	-16%[15.4 µM]	-4.6
CCCCN(C(C)=O)c1ccc2c(c1)C1CC2CCN1C(=O)OCc1ccccc1 (centres undefined)	u	x	-1	-1	x	0.6
CC1C(=O)N(Cc2cn(CCC3OCCCO3)nn2)CCS(=O)(=O)N1Cc1ccc(-c2ccncc2)cc1 (centres undefined)	x	-5	-12	7	-56%	-3.5
Cc1[nH]c2ccccc2c(=O)c1C(=O)/C=C/c1ccccc1	8%	-12	-1	-4	u	-5.2
